Bioassay records: PubChem BioAssay, National Center for Advancing Translational Sciences (NCATS)
nsP2pro inh: CHIKV nsP2 protease inhibition, primary qHTS. Q8JUX6. FRET peptide cleavage, nsP2pro, fluorescence 1 h. Potency, µM (doses to about 24.9 µM), for the others: at the top dose activity change, negative = inhibition, actives largely listed as inhibitors. actives 1.1% (n = 31,000). AID 1964107; active means well fitted inhibition curve with a large enough effect; inconclusive means small, poorly fitted or top-dose-only effect; inactive means no such curve, though single readings can be large or run the other way; also: nearly all actives have a fitted effect of over 60% in size; a reference inhibitor and vehicle were the controls
Target sequence (Q8JUX6 whole entry, looked up): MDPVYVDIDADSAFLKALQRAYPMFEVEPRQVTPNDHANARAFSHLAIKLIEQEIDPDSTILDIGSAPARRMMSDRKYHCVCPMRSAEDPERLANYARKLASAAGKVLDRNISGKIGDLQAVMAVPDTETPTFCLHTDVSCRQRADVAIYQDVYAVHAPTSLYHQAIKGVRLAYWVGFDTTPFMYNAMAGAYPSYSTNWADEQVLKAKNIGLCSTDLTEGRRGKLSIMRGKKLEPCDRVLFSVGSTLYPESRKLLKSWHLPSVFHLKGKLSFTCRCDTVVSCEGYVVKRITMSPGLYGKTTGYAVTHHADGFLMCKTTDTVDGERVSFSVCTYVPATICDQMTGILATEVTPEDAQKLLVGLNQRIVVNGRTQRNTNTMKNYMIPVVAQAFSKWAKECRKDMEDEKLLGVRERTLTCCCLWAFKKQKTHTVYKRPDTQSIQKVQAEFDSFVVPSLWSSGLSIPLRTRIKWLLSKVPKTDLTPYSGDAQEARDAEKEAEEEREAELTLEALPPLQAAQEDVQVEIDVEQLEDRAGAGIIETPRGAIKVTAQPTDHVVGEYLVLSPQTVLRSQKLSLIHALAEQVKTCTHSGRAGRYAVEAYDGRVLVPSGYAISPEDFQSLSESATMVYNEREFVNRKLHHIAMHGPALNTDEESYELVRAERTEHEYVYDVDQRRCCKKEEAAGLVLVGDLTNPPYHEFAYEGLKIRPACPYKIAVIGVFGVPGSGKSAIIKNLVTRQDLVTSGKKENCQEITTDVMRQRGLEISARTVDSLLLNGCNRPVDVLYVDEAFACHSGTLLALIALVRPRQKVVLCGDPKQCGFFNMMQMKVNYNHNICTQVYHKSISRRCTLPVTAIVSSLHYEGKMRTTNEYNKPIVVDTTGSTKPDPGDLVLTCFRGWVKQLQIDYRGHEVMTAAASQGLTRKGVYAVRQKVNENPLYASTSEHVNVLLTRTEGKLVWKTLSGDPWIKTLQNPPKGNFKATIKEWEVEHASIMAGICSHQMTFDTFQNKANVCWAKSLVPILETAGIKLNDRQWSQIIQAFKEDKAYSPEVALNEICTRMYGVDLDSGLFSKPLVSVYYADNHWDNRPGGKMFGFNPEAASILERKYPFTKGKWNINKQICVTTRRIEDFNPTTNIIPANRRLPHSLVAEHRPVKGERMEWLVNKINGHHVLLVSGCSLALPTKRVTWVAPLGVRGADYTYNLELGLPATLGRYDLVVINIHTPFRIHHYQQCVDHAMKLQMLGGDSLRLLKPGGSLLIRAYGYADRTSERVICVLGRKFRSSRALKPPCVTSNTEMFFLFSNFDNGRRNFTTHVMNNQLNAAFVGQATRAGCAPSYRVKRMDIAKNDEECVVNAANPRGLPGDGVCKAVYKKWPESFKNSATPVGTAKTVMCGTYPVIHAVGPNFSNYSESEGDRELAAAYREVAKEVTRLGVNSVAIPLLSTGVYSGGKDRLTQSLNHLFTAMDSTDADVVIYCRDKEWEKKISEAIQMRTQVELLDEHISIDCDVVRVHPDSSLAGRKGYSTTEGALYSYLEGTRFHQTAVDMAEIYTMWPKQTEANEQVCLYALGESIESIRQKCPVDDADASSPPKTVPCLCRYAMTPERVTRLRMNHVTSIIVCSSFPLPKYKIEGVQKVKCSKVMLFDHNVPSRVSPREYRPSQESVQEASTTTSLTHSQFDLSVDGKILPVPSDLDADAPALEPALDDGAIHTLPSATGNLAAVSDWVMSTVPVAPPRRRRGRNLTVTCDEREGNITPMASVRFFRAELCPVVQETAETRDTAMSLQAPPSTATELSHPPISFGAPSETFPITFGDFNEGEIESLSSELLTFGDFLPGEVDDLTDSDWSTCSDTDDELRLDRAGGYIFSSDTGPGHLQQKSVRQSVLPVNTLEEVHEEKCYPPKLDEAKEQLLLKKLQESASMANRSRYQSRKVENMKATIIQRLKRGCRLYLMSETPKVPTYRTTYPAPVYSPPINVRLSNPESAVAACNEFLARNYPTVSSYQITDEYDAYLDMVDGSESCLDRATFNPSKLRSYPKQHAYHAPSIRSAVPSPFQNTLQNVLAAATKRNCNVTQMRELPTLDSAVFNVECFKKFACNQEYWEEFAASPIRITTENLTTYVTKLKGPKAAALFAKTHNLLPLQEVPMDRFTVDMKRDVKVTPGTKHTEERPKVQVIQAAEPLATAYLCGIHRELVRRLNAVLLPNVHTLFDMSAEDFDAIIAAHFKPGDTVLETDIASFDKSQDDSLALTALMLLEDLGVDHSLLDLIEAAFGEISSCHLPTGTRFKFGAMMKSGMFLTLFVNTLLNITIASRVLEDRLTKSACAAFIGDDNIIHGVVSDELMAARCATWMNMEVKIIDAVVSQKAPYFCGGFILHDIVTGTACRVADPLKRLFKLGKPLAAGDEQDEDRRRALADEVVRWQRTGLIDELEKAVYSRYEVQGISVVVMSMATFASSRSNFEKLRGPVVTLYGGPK
* marks the source's active call; other numbers are inactive results; i = inactive; ? = inconclusive; & = joins results of further samples; [ ] = another dose, or the depositor's remark. % is scaled to controls: 0 for no effect and ±100 for the full control effect; potency is read from the fitted curve at half-maximal effect.

SMILES	nsP2pro inh
O=S(=O)(Nc1cccc2cccnc12)c1ccc(Br)s1	i
CCc1ccc(OCC(=O)Nc2ncn[nH]2)c(Br)c1	-17%
CC(=O)O[C@@H]1C2=C(O)C(=O)[C@](C)(OC(C)=O)C(=O)C2=CO[C@@]12O[C@@H](C)CC[C@H]2OC(C)=O	?
CCN1CCCC1Cn1c(-c2ccccc2)nc2c(N3CCOCC3)nc(C)nc21 (configuration not stated)	3%
OC[C@@]1(O)CO[C@@H](OC[C@H]2O[C@@H](Oc3c[nH]c4ccccc34)[C@H](O)[C@@H](O)[C@@H]2O)[C@@H]1O	-9%[10 µM]
CCOc1ccc(-n2ccnc2SCC(=O)Nc2ccc3c(c2)OCO3)cc1	-12%
CCC1CCCN(C(=O)CC(c2ccc3c(c2)OCO3)c2c(O)cc(OC)cc2OC)C1 (configuration not stated)	i
COc1cc(F)c(S(=O)(=O)N2CCCN(S(=O)(=O)c3ccc(NC(C)=O)cc3)CC2)c(F)c1	i
CO[C@@H]1CC[C@H](OC[C@]2(COC(=O)c3ccc(C)[nH]3)[C@H](OC(C)=O)CC[C@@]3(C)[C@@H]4CC=C(C)[C@@H](C5=C(O)C(=O)OC5O)[C@]4(C)CC[C@@H]32)O[C@H]1C (some centres not stated)	-13%[10 µM]
Cc1cc(NC(=O)c2ccco2)cc(-c2nc3ccccc3o2)c1O	-28%
CN1C[C@H](NC2CCC2)CCC[C@@H](C(=O)NC2CCOCC2)CC1=O	4%[39.2 µM]
CNCCC(c1cccs1)c1ccc(O)c2ccccc12 (configuration not stated)	-13%
COc1cccc(CCNC(=O)c2cnc3sc(N4CCCCCC4)nn3c2=O)c1	-1%
CCOc1ccc(CCNC(=O)CN2CCN(Cc3ccc(F)cc3Cl)C2=O)cc1OCC	-5%
COc1ccc(CN2CCc3oc(C)c(C(=O)NC(C)Cn4ccc(C)n4)c3C2)cc1 (configuration not stated)	-29%
Cc1cnn(CCC(=O)NC2CCN(c3ccc(=O)n(C)n3)CC2)c1	-5%
COc1cc(CN(C(=O)c2ccc(OC(C)C)cc2)c2ccccn2)cc(OC)c1OC	-15%
CC(C)(C)C1CN(Cc2cccs2)C(=O)c2cccnc2O1 (configuration not stated)	-11%[10 µM]
CCOC(=O)c1ccc(NC(=O)CSc2nnc(-c3ccncc3)n2-c2ccccc2)cc1	-18%
O=C(NCc1cc(F)ccc1F)[C@@H]1CNC[C@H]1COc1cccnc1	-10%

4 neighbouring compounds from above, quoted:
SMILES	nsP2pro inh
COc1cc(CN(C(=O)c2ccc(OC(C)C)cc2)c2ccccn2)cc(OC)c1OC	-15%
CC(C)(C)C1CN(Cc2cccs2)C(=O)c2cccnc2O1 (configuration not stated)	-11%[10 µM]
CCOC(=O)c1ccc(NC(=O)CSc2nnc(-c3ccncc3)n2-c2ccccc2)cc1	-18%
O=C(NCc1cc(F)ccc1F)[C@@H]1CNC[C@H]1COc1cccnc1	-10%

Carrying on.
SMILES	nsP2pro inh
CCN(CC)CCCNc1oc(-c2ccc(OC)cc2)nc1C#N	-2%
COc1ccc(CN2CCCC3(C2)C(=NC2CCCCC2)NC(=O)N3c2cccnc2)cc1 (configuration not stated)	i
O=c1c(O)c(-c2ccc(O)c(O)c2)oc2cc(O)cc(O)c12	56%[activator]
CCOC(=O)c1c(C)[nH]c(C)c1S(=O)(=O)N(C)CC(=O)NCc1cccc(Br)c1	-15%
O=C1CCc2cc(S(=O)(=O)Nc3cc(F)cc(Cl)c3)c(F)cc2N1	-1%
CC1(C)C(=O)N(CC2CCOCC2)[C@H]2CN(Cc3cccs3)C[C@@H]2[S+]1(=O)[O-]	-10%[39.2 µM]
O=C(c1ccc(F)cc1)c1cn(Cc2ccccc2F)c2cc3c(cc2c1=O)OCCO3	-7%
O=C(OCC#CCSc1nnc(-c2ccc3ccccc3c2)o1)c1ccccc1	-4%
Cc1cccc(NC(=O)Cn2c(=O)n(CCc3ccccc3)c(=O)c3sc4ccccc4c32)c1	-16%
O=S(=O)(O)c1ccc2c(N=Nc3ccc(S(=O)(=O)O)c4ccccc34)c(O)c(S(=O)(=O)O)cc2c1	108%[activator]
O=C(Nc1ccc(F)c(C(F)(F)F)c1)Nc1nnc(-c2cccnc2)s1	-1%
CC(CC(c1ccccc1)c1ccccc1)NC(C)(C)C (configuration not stated)	-5%
Cc1cccc(OCC(=O)Nc2cccc(OCc3cc(=O)n4cccc(C)c4n3)c2)c1	-23%
COc1cc(O)c(C(CC(=O)N2CCCCC2)c2ccc(C)cc2)c(OC)c1 (configuration not stated)	i
O=C1OC2(CCN(C(=O)c3ccco3)CC2)CN1CCOc1ccccc1	-13%
CCOC(=O)C1CCCN(C(=O)C2CC(c3ccc(F)c(C)c3)CN(C(=O)NC(C)C)C2)C1 (configuration not stated)	-7%
O=C1CCC(CCC(=O)N2CCC(c3ccc(F)cc3)C2)(Cc2ccc3ccccc3c2)N1 (configuration not stated)	-1%
CN(C)[C@@H]1CO[C@H](CNC(=O)c2ccncc2)[C@H]1O	-7%[39.2 µM]
C=C(C)[C@@H]1CC[C@]2(C)CC[C@]3(C)C(CCC4[C@@]5(C)CC[C@H](O)C(C)(C)C5CC[C@]43C)C12 (some centres not stated)	20%[10 µM]
Cn1nnnc1Sc1ncnc2scc(-c3cccc4c3sc3ccccc34)c12	3%
CS(=O)(=O)N1CCC2(CC1)CN(C(=O)c1ccc(N)nc1)Cc1ccccc1O2	?
Cc1ccc(-c2nc(CCNC(=O)C(=O)Nc3ccc(C)c(Cl)c3)cs2)cc1	-23%
CC(=O)Nc1ccc(S(=O)(=O)N2CCC(c3nnc(-c4ccc(C)cc4)o3)CC2)cc1	-4%
C[C@@]1(O)CCN(C(=O)c2cccc(F)c2)C[C@H]1N1CCCC1	5%
COc1ccc(O)c(CNc2ccc(S(=O)(=O)Nc3nccs3)cc2)c1	i
c1ccc(Nc2cc3c(cn2)NCCN(Cc2ccccn2)C3)cc1	i
CNC(=O)N1CCCC(n2c(C)cnc2-c2ccncc2)C1 (configuration not stated)	5%
CN(C)CC1(O)CCC2(CCN(C(=O)c3cccn3C)CC2)CC1	2%
COc1cccc([C@@H]2CCN(Cc3cn[nH]c3C(=O)O)C[C@H]2O)c1	-10%
Cc1ccccc1N1Cc2c(NC3CCCCCC3)ncnc2N(C)CC1=O	-4%
O=C(OCC(O)CO)c1ccccc1Nc1ccnc2cc(Cl)ccc12 (configuration not stated)	3%
CCCCCCCCCCCCCCCCOCCCOP(=O)(O)CO[C@H](CO)Cn1ccc(N)nc1=O	1%[5.1 µM]
CC1=CC2/C=C(\C)CCC3OC(C)(C)OC3CCC(=O)C23C(=O)NC(CC(C)C)C3C1C (configuration not stated)	?
CO/C1=C/C(C)=C\[C@@H](C)[C@@H](O)[C@@H](C)C/C(C)=C\C=C/[C@H](OC)[C@@H]([C@@H](C)[C@@H](O)[C@H](C)[C@@]2(O)C[C@@H](O)[C@H](C)[C@@H](C(C)C)O2)OC1=O	-9%[2.68 µM]
Cc1nc2ncnn2c(C)c1CCC(=O)N1CCN(c2ccc(F)cc2)CC1	-18%
CCN1CCN(C2(C(=O)NCCc3ccccc3)Cc3ccccc3C2)CC1	-8%
CCC[C@@H]1CN(C(=O)CNS(=O)(=O)c2cccs2)C[C@H]1NC(C)=O	-8%
Cc1cc(N2C(=O)c3ccccc3C2=O)n[nH]1	3%
CCOC(=O)c1cnc2c(ccc3ccccc32)c1Nc1ccc(OC)c(OC)c1	-4%
CC(=O)N(Cc1cccnc1)c1nc2ccc(F)cc2s1	-9%
CC(=O)OCC(=O)[C@@]12O[C@@H]1C[C@H]1[C@@H]3CC=C4C[C@@H](O)CC[C@]4(C)[C@H]3CC[C@@]12C	6%
Cc1ccc(C(=O)N2CC[C@@](C)(O)[C@@H](Cc3ccccc3)C2)cc1C	4%
COc1ccc(-n2ccn(CC(=O)NCCc3ccccc3)c(=O)c2=O)cc1OC	-11%
O=C(COCCOCCOCC(=O)Nc1c(I)cc(I)c(C(=O)O)c1I)Nc1c(I)cc(I)c(C(=O)O)c1I	-16%
Cc1ccc(C(=O)Nc2ccc(F)cc2)cc1S(=O)(=O)N1CCOCC1	-22%
COC1CC(OC2CCC3(C)C(=CCC4C3C(OC(C)=O)C(OC(=O)/C=C/c3ccccc3)C3(C)C(C(C)O)CCC43O)C2)OC(C)C1OC1CC(OC)C(OC2OC(C)C(OC3OC(CO)C(O)C(O)C3O)C(OC)C2O)C(C)O1 (configuration not stated)	?
C/C=C(/C=C(C)/C=C/C=C/C=C(\C)C(=O)C12OC1C(O)(CCO)NC2=O)C(=O)OC (configuration not stated)	?
O=C(CN1CCCC1)N[C@H]1CC[C@H](Nc2nccc(-c3cccnc3)n2)C1	4%
Cc1ccc(-c2cc(C(=O)Nc3nc4ccccc4s3)c3ccccc3n2)cc1C	1%
COCCC1(NC(=O)c2ccoc2)CCN(CC2CC2)CC1	1%

The results go on.
SMILES	nsP2pro inh
COc1ccc(N(CC(=O)N2CCN(c3ccc(F)cc3)CC2)S(=O)(=O)c2c(C)noc2C)cc1	-16%
OC1COC(OCC2OC(OCCc3ccccc3)C(O)C(O)C2O)C(O)C1O (configuration not stated)	81%[activator][10 µM]
CCc1ccc(C(c2ccccc2)c2c[nH]c3ccc(C)cc23)s1 (configuration not stated)	-22%
Cc1c(C)c2c(c(C)c1O)CCC(C)(COc1ccc(CC3SC(=O)NC3=O)cc1)O2 (configuration not stated)	55%[activator]
Cc1ccsc1CN1CCCOCCNC(=O)[C@@H]2CCCC[C@@H]21	3%
Cc1ccccc1C(=O)c1ccc(Nc2ccc(Br)cc2N)cc1Cl	63%
CCOc1ccc(NC(=O)CSc2nnc3scc(-c4ccc(Cl)cc4)n23)cc1	-22%
Cc1cc(C)n2ncc(C(=O)Nc3ccc(Cl)c(Cl)c3)c2n1	-5%
COc1cc2c(cc1O)[C@H](c1ccc(O[C@@H]3O[C@H](CO)[C@@H](O)[C@H](O)[C@H]3O)c(OC)c1)[C@@H](CO)[C@](O)(CO)C2	17%[10 µM]
CCN=C1N[C@@H]2[C@@H](O)[C@H](O)[C@@H](CO)O[C@@H]2S1	-7%
CCC(Cc1ccccc1)NC(=O)Cn1nc(C)n2c(cc3occc32)c1=O (configuration not stated)	-14%
CC1(C)CC(=O)c2cc(-c3nc(-c4ccccc4)cs3)c(=O)[nH]c2C1	-20%
COc1ccc(OC)c(NC(=O)CN2C(=O)COc3ccc(S(=O)(=O)NC4CCCC4)cc32)c1	-11%
CCOc1cc(S(=O)(=O)NCCc2c(C)[nH]c3ccc(C)cc23)ccc1Br	12%
CN(C)Cc1cc(C[C@@H]2C[C@H](NC(=O)C3CCC3)C2(C)C)no1	-4%[39.2 µM]
COc1ccc(Cl)cc1NC(=O)CCCn1c(=O)c2cccn2c2cccnc21	-18%
O=C(OCC#CCSc1nnc(-c2ccc3ccccc3c2)o1)c1ccc(F)c(F)c1	-3%
CC1=C(C(=O)OC2CCCCCC2)C(c2c(Cl)cccc2Cl)CC(=O)N1 (configuration not stated)	-22%
CCOc1ccccc1NC(=O)c1cccc2c1C(=O)N(C1CCCCC1)C2	-18%
Cc1ccc(CCCn2c(CCNC(=O)C3CCCCC3)nc3ccccc32)cc1	i
COc1ccnc(NC(=S)N2CCN(c3cccc(C(F)(F)F)c3)CC2)c1	2%
CCNC(=O)C[C@@H]1N=C(c2ccc(Cl)cc2)c2cc(OC)ccc2-n2c(C)nnc21	-6%&-9%&0%&-8%
Cc1ccc(NC(=O)c2ccc(CN3CCN(C)CC3)cc2)cc1Nc1nc(-c2cccnc2)cs1	71%[activator]
CCc1nnc(CN(CC)C(=O)c2cc(S(N)(=O)=O)ccc2F)o1	-9%
C=CC(C)(O)CC/C=C(\C)C(=O)OCC1OC(OC2CCC3(C)C(CCC4(C)C3CC=C3C5CC(C)(C)C(O)CC5(C(=O)O)CCC34C)C2(C)C)C(O)C(OC2OC(CO)C(O)C(OC3OC(CO)C(O)C(OC4OC(COC5OC(CO)C(O)C(O)C5O)C(O)C(O)C4O)C3O)C2O)C1O (configuration not stated)	41%[activator][5.1 µM]
Cc1ccc(NC(=O)Nc2cc3c(cc2N2CCCCC2)n(C)c(=O)n3C)cc1Cl	-4%
O=C(OCC#CCSc1nnc(-c2cc3ccccc3cc2O)o1)c1ccc(F)cc1	-9%
CN1CCN(c2ncc3c(n2)CCN(Cc2ccc(Br)s2)C3)CC1	?
CCc1nc(-c2c3n(c(=O)n(CC(=O)Nc4cc(C)on4)c2=O)CCCC3)no1	4%
c1cncc(OC[C@@H]2CCN2)c1	-1%
CCCCC/C=C\C/C=C\C/C=C\CCCCC(=O)O	48%[activator][39.2 µM]
N#CC1CCN(C(=O)C2CCN(C(=O)c3ccc(-c4cncnc4)cc3)CC2)CC1	4%
COc1cc(CCO)ccc1O[C@@H]1O[C@H](CO)[C@@H](O)[C@H](O)[C@H]1O	?
CCC[C@H](N)C(=O)O	-2%
Cc1ccc(C2CCN(C(=O)c3cnn(-c4ccccc4Cl)c3C3CCN(C(=O)OC(C)(C)C)CC3)C2)cc1 (configuration not stated)	-9%
CCc1ccc(N(C)S(=O)(=O)c2ccc3[nH]cc(C(=O)NCC4CCCO4)c(=O)c3c2)cc1 (configuration not stated)	-7%

Only part of the results is shown. The share of hits here may be higher or lower than overall.
